Source: PubChem
NPYLR7 ag: activates Aedes aegypti NPYLR7 receptor | activation, % at 10 µM | HEK293T NPYLR7/Galpha15, GCaMP6s calcium fluorescence | 270,000 tested, 0.15% active; in the data active = activation above about 40%;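 note: 0% = vehicle and 100% = reference agonist at the receptor; some compounds past the cut are filed as inactive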
NPYLR7 ag max-min: also measured in NPYLR7 ag; calls as there; activation, %; measured here: Max-Min RFU normalised activation; some inactives read as strong as hits;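 span of the calcium signal over five minutes; 0% = vehicle and 100% = native peptide agonist; compound fluorescence can raise it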
Starred values were filed as active, the others as inactive; & = joins results of further samples. Not all compounds are listed. The share of hits here may be higher or lower than overall.

Values in the order – NPYLR7 ag max-min, NPYLR7 ag
O=C(Nc1c(-c2ccc(C(F)(F)F)cc2)nc2ccccn12)C1CCC1
  -4, -4
Cc1ccc2nc(N(CCN(C)C)C(=O)c3cc(C)on3)sc2c1
  -1, 1
CCn1cnnc1CCNc1nccc(N2CCC(O)C2)n1 (stereo unspecified)
  -4, -2
COc1ccc(-n2nc(C)c(-c3ccccc3)c2NC(=O)CN(C(=O)c2ccc3c(c2)OCO3)C(C)C)cc1
  5, -2
Cc1cccn2c(=O)nc(SCc3ccc(C(F)(F)F)cc3)nc12
  6, 7
COc1ccc(N2C(=O)CSC2c2cccc(NC(=O)c3ccccc3Br)c2)cc1 (stereo unspecified)
  7, 8
O=C(CCc1cc2c(n1-c1ccc3c(c1)OCO3)-c1ccccc1CC2)NCCc1cccc(Cl)c1
  3, 2
O=C(NCC1CCN(c2nc(Cc3ccc(Cl)cc3)ns2)CC1)c1ccc(F)cc1
  12, 14
CCc1nc(C2CN(CCCOc3ccc(C#N)cc3)CCO2)n[nH]1 (stereo unspecified)
  3, 6
Cn1c(C(=O)NC(C)(C)C)cc2c(=O)n3ccccc3nc21
  -6&-4, -4&-2

(list continues)
Values in the order – NPYLR7 ag max-min, NPYLR7 ag
COCCn1ccc2nc3ccn(C4CC4)c(=O)c3cc2c1=O
  8, 4
CC(=O)c1cc(CC(=O)NCc2ccsc2)cs1
  -3, 0
Cc1ncc(CN2CCC(n3nccc3NC(=O)CCOc3ccccc3)CC2)s1
  -3, -3
CSc1nc(N2CCOCC2)c2cnn(CCNC(=O)c3ccc(F)c(F)c3)c2n1
  9, 11
COc1ccccc1N1CCN(Cc2nc(C)n3ccccc23)C(C)C1 (stereo unspecified)
  -4, 3
Cc1cc(C(=O)N(Cc2cccnc2)c2nc3c(Cl)cccc3s2)on1
  5, 4
CCC(O)C1CCN(C(=O)c2ccc(OC3CCN(Cc4ccccn4)CC3)cc2)CC1 (stereo unspecified)
  1, 4
O=C(Nc1ccc(C(F)(F)F)cc1)Nc1ccc(N2CCCC2)c(C(=O)NCCc2ccccc2)c1
  15, 18
CC(CO)CSCc1nnc(C(C)(C)C)o1 (stereo unspecified)
  -3, 0
COc1ccc(Cl)c2sc(N(CCCN3CCOCC3)C(=O)c3ccno3)nc12
  23, 0

New compounds follow.
Values in the order – NPYLR7 ag max-min, NPYLR7 ag
CSc1ccccc1C(=O)NCc1ccc(S(=O)(=O)N2CCCCC2)s1
  -7, -4
CN(C)c1ccc(-c2cc(C(N)=O)ccn2)cc1
  3, 11
CCOc1ccc(NC(=O)c2sc3nc4c(cc3c2N)C(=O)CC(C)(C)C4)cc1
  0, 0
Cc1cccc2c(C3CCN(S(=O)(=O)c4cc(F)c(F)cc4Cl)CC3)c[nH]c12
  -1, 4
O=C(CCCOc1ccccc1)N1CCC(c2ccc(F)cc2)CC1
  -6, -5
CCCn1cc(NC(=O)c2sccc2-c2ccccc2)ccc1=O
  -2, 0
COCc1nc(NC(C)CCc2ccco2)c2cnn(C)c2n1 (stereo unspecified)
  6, 9
C=CCOc1cccc(CN(C)C(=O)[C@@H]2C[C@H](N)CN2C)c1
  12, -2
O=C1CNC(=S)N1CCC(c1ccccc1)c1ccccc1
  2, 11
Cn1ccnc(NC(=O)CCC(F)(F)F)c1=O
  0, 6

The list goes on:
Values in the order – NPYLR7 ag max-min, NPYLR7 ag
CCSC1=N/C(=C\c2cc3c(cc2Br)OCO3)C(=O)S1
  16, 23
Cc1nc(=O)[nH]c(C)c1CC(=O)O
  7, 1
CC(C)Cc1ncc2c(n1)CN(C(=O)c1ccc(F)c(Cl)c1)C2
  -7, -7
O=C1C(C(c2ccc(Cl)cc2)N2CCOCC2)Sc2nc(-c3ccco3)nn21 (stereo unspecified)
  10, 21
CC(=O)NC(C(=O)NCCc1cc(C)n(-c2ccccc2)c1C)C(C)C (stereo unspecified)
  2, 7
O=C(CCc1ccccc1)N1CCN(c2ncnc3c2nnn3-c2ccccc2)CC1
  -17, -9
CC1CCc2c(sc3nc(SCC4CCCO4)[nH]c(=O)c23)C1 (stereo unspecified)
  2, 2
CNc1ccccc1C(=O)N1CCC2(CC1)C(=O)NCCN2C
  10, 25
CCOC(=O)c1cc(-c2ccc(N3CCN(C(=O)c4cccs4)CC3)cc2)n(-c2ccccc2OC)n1
  5, 13
O=C(Cc1cccs1)Nc1nnc(SCc2ccccc2C(F)(F)F)s1
  18, 7

Some of the entries above in another layout:
canonical_smiles | NPYLR7 ag max-min | NPYLR7 ag
Cc1nc(=O)[nH]c(C)c1CC(=O)O | 7 | 1
CC(C)Cc1ncc2c(n1)CN(C(=O)c1ccc(F)c(Cl)c1)C2 | -7 | -7
O=C1C(C(c2ccc(Cl)cc2)N2CCOCC2)Sc2nc(-c3ccco3)nn21 (stereo unspecified) | 10 | 21
CC(=O)NC(C(=O)NCCc1cc(C)n(-c2ccccc2)c1C)C(C)C (stereo unspecified) | 2 | 7
O=C(CCc1ccccc1)N1CCN(c2ncnc3c2nnn3-c2ccccc2)CC1 | -17 | -9
CC1CCc2c(sc3nc(SCC4CCCO4)[nH]c(=O)c23)C1 (stereo unspecified) | 2 | 2
CNc1ccccc1C(=O)N1CCC2(CC1)C(=O)NCCN2C | 10 | 25

(next part)
Values in the order – NPYLR7 ag max-min, NPYLR7 ag
O=C(c1ccno1)N(CCN1CCOCC1)c1nc2c(Cl)cccc2s1
  13, 0
Cc1ccc(CNC(=O)NCC(=O)NC(C)c2ccc(F)cc2F)cc1 (stereo unspecified)
  4, 5
N#Cc1cn2ncnc2nc1N
  1, -3
CCN1C(=S)NC(c2ccc(NS(=O)(=O)c3cccc4cccnc34)cc2)C(C(=O)OC)=C1C (stereo unspecified)
  7, 3
O=C(CN1C(=O)COc2ccc(Cl)cc21)Nc1nc2c(s1)CCC2
  -1, 1
Cc1cccc(C)c1Nc1c(C(C)C)nc2c(C)cccn12
  -2, -2
Cc1ccc(NC(=O)CN(C)C(=O)c2ccc(C)c(NS(C)(=O)=O)c2)cc1
  -1, 2
Cc1ccc(-n2cnnn2)nc1
  4, 0
Cc1nc2ccccc2nc1N1CCN(S(=O)(=O)c2ccc(F)c(Cl)c2)CC1
  8, 16
Brc1ccc(CNCCn2cnnc2C2CC2)cc1
  8, 10

Remaining list, next part
Values in the order – NPYLR7 ag max-min, NPYLR7 ag
COc1ccc(-c2cc3c(SCC(=O)Nc4ccc(C)cc4)nccn3n2)cc1
  -5, -2
COCCCN1C(=O)C(=Cc2c(NCCO)nc3ccccn3c2=O)SC1=S
  10, 6
COc1cccc(OC)c1CNC(=O)c1sc2ccccc2c1Cl
  -5, 2
CC1C(=O)NCCN1c1nc(-c2ccccn2)nc2c1CCC2 (stereo unspecified)
  -3, -3
CN(Cc1ccc(-n2cccn2)cc1)C(=O)C(=O)c1cccs1
  4, 15
Cc1ccc2cc(CCNC(=O)c3ccccc3)c(=O)[nH]c2c1C
  -5, -3
CC(=O)c1ccc(NC(=O)CSc2nnc(CCc3c(C)[nH]c(=O)n(C)c3=O)o2)cc1
  -10, -6
O=C(NC1CCN(C2CC2)CC1)c1cc2ccccc2[nH]1
  -8, -6
Cc1cc(C)cc(N2CCN(C(=O)C(C)C)C(C)C2=O)c1 (stereo unspecified)
  -5, -7
COC(=O)C1CCCCN1S(=O)(=O)NCc1ccccc1 (stereo unspecified)
  13, 13

(continued)
Values in the order – NPYLR7 ag max-min, NPYLR7 ag
CC(C)C(=O)NS(=O)(=O)c1cc(Cl)c(Br)s1
  6&2, 8&2
Cc1nn(C)c(Cl)c1C(=O)NCCc1ccc2c(c1)OCCO2
  -1, 0
CC(C)=CC(=O)N1CCCC(N2CCN(c3ccccc3C)CC2)C1 (stereo unspecified)
  -5, -2
Cc1cc(OC(=O)c2cccc(Cl)c2)c([N+](=O)[O-])c(=O)[nH]1
  3, 3
Cc1nc(SCC(C)C)c2c3c(sc2n1)CCC3
  -15, -9
Cc1noc(C)c1C1CCCN1C(=O)c1cccc2c1OCC2 (stereo unspecified)
  4, 7
CCc1nc2c(OCc3cccc(OC)c3)cccn2c1N(C)C(=O)c1ccc(OC)cc1
  4, 10
CC(C)c1c(C#N)c(N)nc(SCC(=O)c2ccc(Cl)c(Cl)c2)c1C#N
  6, 10
O=C(N[C@@H]1CCCCC1NC(=O)C1CCCN(C(=O)C2C[C@H]2c2ccccc2)C1)c1ccc(F)cc1 (stereo partly specified)
  32, 24
CCOc1ccccc1-n1c(=O)[nH]c2c(C(N)=O)nc(CCc3ccccc3)nc21
  6, 14

Whole records from above. Values in the order: NPYLR7 ag max-min	NPYLR7 ag
Cc1cc(OC(=O)c2cccc(Cl)c2)c([N+](=O)[O-])c(=O)[nH]1 as listed: 3	3
Cc1noc(C)c1C1CCCN1C(=O)c1cccc2c1OCC2 (stereo unspecified) as listed: 4	7

The list continues.
Values in the order – NPYLR7 ag max-min, NPYLR7 ag
COC(=O)c1ccc2c(=O)n(-c3cc(OC)cc(OC)c3)c(N3CCCC3)nc2c1
  -2, 1
N#Cc1cccc(C(=O)N2CCC(n3nc(-c4ccccc4)cc3-c3ccccc3)CC2)c1
  15, 3
Cc1ccc(C(=O)Nc2cccc3c2C(=O)NC3=O)cc1C
  0, 1
Clc1ccc(COc2c(Cl)cc(Cl)cc2/C=N\n2cnnc2)cc1
  -9, -3
O=C(NC1(c2ccc3c(c2)OCCO3)CCCC1)c1cc2c([nH]c1=O)CCCC2
  8, 1
CCOC(=O)/C(=N/Nc1ccccc1)S/C(=N/Nc1ccccc1)C(=O)OCC
  -10, -7
Cc1cccc(CSc2nnc(CNS(=O)(=O)c3ccc(C(C)(C)C)cc3)n2-c2cc(Cl)ccc2C)c1
  1, -6
O=C(O)c1ccc(CSc2nnc(-c3ccccc3Cl)n2-c2cccc(Cl)c2)cc1
  -9, -4
O=C(c1cnc(CN2CCCC2)s1)N1CCCC(Nc2ccccc2)C1 (stereo unspecified)
  17, 27
Cn1cnc2c(nnn2C)c1=O
  17, 0

Other results:
Values in the order – NPYLR7 ag max-min, NPYLR7 ag
CCc1cccc2c(C(CC(=O)N3CCC4(CC3)OCCO4)c3ccc(Cl)cc3)c[nH]c12 (stereo unspecified)
  -1, 0
CCOC(=O)N1CCN(CC(=O)N2N=C(c3ccccc3F)CC2c2cc(OC)ccc2OC)CC1 (stereo unspecified)
  2, -2
Cc1cc(NC(=O)CN2CCC3(CC2)OCCCO3)nn1-c1ccccc1
  -2, 2
CC(C)c1cccc(-c2nc3c(NCc4ccccn4)nccc3[nH]2)c1
  -11, -7
Cc1ccccc1-n1nccc1NC(=O)CCOC(C)C
  2, 2
Cc1nn(C)c(C)c1NC(=O)c1ccc(S(C)(=O)=O)cc1
  6, 8
CC1CC(NC(C)c2ccc(-c3cncnc3)cc2)C(=O)O1 (stereo unspecified)
  -3, 0
CCc1nc(CN(C)Cc2ccc(C(=O)Nc3cnn(C)c3)cc2)no1
  25, 28
Cc1c(C(=O)NCC2CCCO2)c(CC(C)C)nn1-c1ccc(Cl)c(Cl)c1 (stereo unspecified)
  25, 24
CCS(=O)(=O)c1ccc(C(=O)N(CCn2cccn2)c2nc3ccccc3s2)cc1
  -22, -22

Next results
Values in the order – NPYLR7 ag max-min, NPYLR7 ag
CC(C)(C)C(=O)Nc1nnc(N=Cc2ccc(Br)s2)s1
  -9, -3
COc1ccc(-c2c(C)nn3c(N4CCN(c5ccccc5)CC4)cc(C)nc23)cc1OC
  -1, 1
COc1cc(C)c(Cc2cnc(N)nc2N)cc1OC
  -12, -10
CCCN(Cc1c(-c2ccccc2)noc1N1CCCCC1)CC(O)c1ccccc1 (stereo unspecified)
  16, 13
COc1ccc(/C=C/CN2CCN(c3nccnc3C)CC2)cc1
  7, 8
O=C(CCn1nnc2ccccc21)Nc1cnc2n1CCCC2
  -9, -10
CCCc1nc(C)sc1C(=O)Nc1ccc(-c2ccccc2)cc1
  -8, 1
CC(C)(C)OC(=O)n1ccc(CCCCCO)c1
  -10, -7
Cc1cccc(OCC2CCCN(c3ccc(-c4nccn4C)nn3)C2)c1 (stereo unspecified)
  5, 13
COc1ccccc1-c1ccc(N2CCC(C(=O)Nc3ccccn3)CC2)nn1
  -14, -10

Next entries follow:
Values in the order – NPYLR7 ag max-min, NPYLR7 ag
COCCC1CCCCN1C(=O)c1ccc(-n2cnnc2)cc1 (stereo unspecified)
  4, 6
O=C(Nc1cccnc1N1CCN(S(=O)(=O)c2ccc(Cl)s2)CC1)c1ccc2c(c1)OCO2
  6, 14
CCN(CC)c1ccc(NC(=O)CCc2c(C)nn(-c3nc(C)cc(=O)[nH]3)c2C)c(C)c1
  -2, 8
Cc1cccnc1C(NC(=O)C1CCN(Cc2ccc(Cl)cc2)CC1)c1ccccc1 (stereo unspecified)
  -5, 6
COc1cc(C)ccc1-n1c(CCC(=O)NCCCOC(C)C)cc2c1-c1ccccc1OC2
  -1, 0
CCN(Cc1cnn(CC)c1)C(=O)C/C=C/c1ccccc1
  1, 1
COc1ccc(S(=O)(=O)N2CCC(NC(=O)COc3ccc(Cl)cc3)CC2)cc1
  -2, 2
Cc1cc(C)c(C#N)c(NCc2ccccc2)n1
  -5, -1
Cc1nc2ccccc2nc1N1CCN(C(=O)c2cccnc2Cl)CC1
  27, 30
O=C(NCC1CC2C=CC1C2)c1cc(=O)c(OCc2ccccc2)c[nH]1 (stereo unspecified)
  25, 0

The list continues:
Values in the order – NPYLR7 ag max-min, NPYLR7 ag
CC(C)(C)n1nc(C(=O)Nc2ccccc2C#N)cc1C1CC1
  5, 6
COc1ccc(/C=C2/SC(=Nc3ccccc3)NC2=O)cc1O
  4, 6
CCOc1ccc(C(=O)Nc2ccc(-c3nc4ccccc4o3)cc2)cc1Br
  9, 12
O=C(CCCl)NC(c1ccccc1)c1ccccc1
  2, 7
O=C(c1cccc(Cl)c1)N1CCCC(OCc2cccc(OC(F)(F)F)c2)C1 (stereo unspecified)
  1, -2
Cc1ocnc1C(=O)NCc1cccnc1N1CCCCCCC1
  9, 20
COCCN1C(=O)C2(SCCN2C(=O)COC)c2ccccc21 (stereo unspecified)
  8, -1
CSCCC(NC(=O)c1ccco1)C(=O)NCC(F)(F)F (stereo unspecified)
  0, 2
CC(=O)Nc1ccc2c(c1)sc(=NC(=O)c1nc3ccccc3s1)n2C
  59, 31
COc1cccc(-c2cc(C(=O)NCc3ccccc3)n3nc(C(C)(C)C)cc3n2)c1
  6, 4
